M5 PAM: positive allosteric modulators of human muscarinic M5 receptor. P08912. CHO-K1 hM5, Fluo-8 calcium, ACh EC20 PAM; 0% = ACh EC20, 100% = ACh EC100. activation, % at 3 µM. hit rate 0.3% among 360,000. AID 624038;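 active means activation above the run cutoff, the mean activation of all test compounds plus 3 SD, cut at about 18% in these data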
Target sequence (P08912 whole entry, looked up): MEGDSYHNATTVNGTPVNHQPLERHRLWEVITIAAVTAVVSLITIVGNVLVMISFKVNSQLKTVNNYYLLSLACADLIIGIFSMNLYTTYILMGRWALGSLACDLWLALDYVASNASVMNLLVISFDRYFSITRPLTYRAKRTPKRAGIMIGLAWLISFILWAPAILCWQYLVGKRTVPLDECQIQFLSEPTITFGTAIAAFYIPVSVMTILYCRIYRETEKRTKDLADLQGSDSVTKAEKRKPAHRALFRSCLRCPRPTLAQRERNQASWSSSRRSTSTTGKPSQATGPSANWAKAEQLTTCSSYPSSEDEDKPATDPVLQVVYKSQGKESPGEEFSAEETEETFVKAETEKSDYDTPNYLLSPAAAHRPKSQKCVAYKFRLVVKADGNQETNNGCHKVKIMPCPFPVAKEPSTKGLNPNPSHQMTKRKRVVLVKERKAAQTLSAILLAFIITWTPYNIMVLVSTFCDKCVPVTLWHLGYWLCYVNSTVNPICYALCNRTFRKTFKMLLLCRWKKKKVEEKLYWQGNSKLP
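Measured by: Fluo-8 calcium fluorescence; material: human M5 receptor in CHO-K1 cells; schedule: Post-acetylcholine fluorescence recording 140 s; benchmarks: low control EC20 acetylcholine (0%), high control EC100 acetylcholine (100%); read-out: Max/basal fluorescence ratio as % of EC20–EC100 ACh window; compound: single dose, 3 µM nominal final test concentration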
CRFR2-BP antag: antagonists of CRF-binding protein/CRF-R2 receptor complex; HEK293 CRF-R2/CRF-BP, CRF-induced calcium fluorescence; inhibition, % at 11.8 µM; hit rate 0.59% among 350,000;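 active means inhibition of the ligand-induced calcium signal above about 50% at the single tested concentration, limit read from the data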
M5 antag: antagonists of human muscarinic M5 receptor (CHRM5). P08912. CHO-hM5 cells, Fluo-8 calcium fluorescence, ACh EC80. inhibition, % at 3 µM. hit rate 0.59% among 360,000. AID 624040;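 active means inhibition above a per-plate cutoff, the mean of that plate's test compounds plus 3 SD, cut at about 27% in these data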;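 further: 0% = acetylcholine EC80 with DMSO and 100% = DMSO without agonist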
TAAR1 antagonist: human TAAR1 antagonism; Q96RJ0; CHO RD-HGA16 TAAR1, Fluo-8 calcium fluorescence, antagonist; inhibition, % at 3 µM; hit rate 1.5% among 360,000;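 active means inhibition above a per-plate cutoff, the mean inhibition of test compounds on that plate plus 3 SD, cut at about 49% in these data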;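 further: 0% = DMSO plus EC80 beta-PEA response and 100% = DMSO alone without agonist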
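Assay system: RD-HGA16 CHO cells with stable hTAAR1 and Gα16 / Reagent: EC80 β-phenethylamine stimulus / Doses: 3 µM, single point / Timing: dye loading 75 min at 37 °C, then 30 min room temperature / Measured by: Fluo-8 intracellular calcium dye fluorescence, real-time kinetic reads / Controls: vehicle wells and EC80 agonist wells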
TAAR1 agonist: human TAAR1 agonism. Q96RJ0. CHO RD-HGA16 TAAR1, Fluo-8 calcium fluorescence; vehicle wells 0%, saturating PEA agonist 100%. activation, % at 3 µM. hit rate 0.99% among 360,000;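 active means activation above the mean activation of all test compounds in the run plus 3 SD, cut at about 38% in these data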
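Assay system – CHO-derived RD-HGA16 cells with stable Gα16 and human TAAR1 · Compound dosing – one-point dosing at 3 µM (nominal) · Incubation – 17-24 h seeding, 75 min 37 °C dye, 30 min RT · Measured by – kinetic Fluo-8 calcium fluorescence · Control set – DMSO vehicle as 0%, PEA at EC100 as 100% · Repeats – single well for each compound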
CRFBP-R2 agonist: agonists of human CRF-binding protein/CRF-R2 receptor complex. HEK293 CRF-R2/CRF-BP, calcium dye fluorescence (FLIPR); percent of saturating CRF peptide response. activation, % at 13.2 µM. hit rate 0.46% among 350,000;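 active means activation of at least 50%, plus an integration ratio under a set limit after plate pattern correction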;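 further: plate controls were neutral control wells without compound for no effect and CRF at EC100 for full effect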
CHRM4 PAM: CHRM4 positive allosteric modulation; CHO-K1 hM4/Gqi5, Fluo-8 calcium fluorescence, ACh EC20; 0% = ACh EC20, 100% = maximal ACh; P08173; activation, % at 3 µM; hit rate 0.4% among 360,000;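 active means activation above its plate's cutoff, the mean activation of sample wells plus 3 SD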; further: some results filed as inactive read as strong as hits
M5 ag: agonists of human muscarinic M5 receptor (CHRM5); hit rate 0.19% among 360,000; P08912; AID 624037; activation, % at 3 µM; CHO-K1 hM5 cells, Fluo-8 calcium fluorescence; 0% DMSO wells, 100% maximal acetylcholine response;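 active means activation above the run's mean over test compounds plus 3 SD, cut at about 23% in these data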;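 further: signal is peak over basal fluorescence ratio across the kinetic read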
An asterisk follows results filed as active; i = inactive; & = joins results of further samples; ! = a repeat was not active. Some of the compounds tested; rates above refer to the full screens.

SMILES	M5 PAM	CRFR2-BP antag	M5 antag	TAAR1 antagonist	TAAR1 agonist	CRFBP-R2 agonist	CHRM4 PAM	M5 ag
CCC(C)C(N)C1=NC(C(=O)N[C@@H](CC(C)C)C(=O)N[C@H](CCC(=O)O)C(=O)N[C@H](C(=O)N[C@H]2CCCCNC(=O)[C@H](CC(N)=O)NC(=O)[C@@H](CC(=O)O)NC(=O)[C@H](Cc3cnc[nH]3)NC(=O)[C@@H](Cc3ccccc3)NC(=O)[C@H]([C@@H](C)CC)NC(=O)[C@@H](CCCN)NC2=O)[C@@H](C)CC)CS1 (stereo partly drawn)	-6	4	10	7	1	4.4	-3	0
CCC(C(=O)OCCOCCN(CC)CC)c1ccccc1 (stereo not drawn)	-21	7	12	-29	3	2.7	-9	-21
Cc1ccc(C(=O)c2ccc(CC(=O)O)n2C)cc1	1	-14	-1	-26	4	1.5	-1	0
CCOC(=O)C1=C(C)NC(C)=C(C(=O)OC)C1c1cccc(Cl)c1Cl (stereo not drawn)	-9	-3	3	21	0	0.5	3	-1
Cc1ccnc2c1NC(=O)c1cccnc1N2C1CC1	2	-6	-5	-10	1	0.2	1	1
Oc1c(I)cc(I)c2cccnc12	-4	-25	2	1	-1	0.7	-2	13
C[C@@H]1C[C@H]2[C@@H]3CCC4=CC(=O)C=C[C@]4(C)[C@@]3(F)[C@@H](O)C[C@]2(C)[C@H]1C(=O)CO	-2	-11	-4	-7	3	1.4	0	2
CC[C@]1(O)CC2CN(CCc3c([nH]c4ccccc34)[C@@](C(=O)OC)(c3cc4c(cc3OC)N(C=O)[C@H]3[C@@](O)(C(=O)OC)[C@H](OC(C)=O)[C@]5(CC)C=CCN6CC[C@]43[C@@H]65)C2)C1 (stereo partly drawn)	2	-9	7	-13	2	0.4	-1	1
CC1=C(/C=C/C(C)=C/C=C/C(C)=C\C(=O)O)C(C)(C)CCC1	-1	18	-4	-15	0	-0.1	-1	0
COC(=O)Nc1sc(C)nc1-c1ccccc1	-1	11	-4	4	4	-0.4	-1	2
CCOC(=O)[C@H](CCc1ccccc1)N[C@@H](C)C(=O)N1CCC[C@H]1C(=O)O	-9&8	-2&12	6&-2	-2	0	-0.5&1.5	-3&5	-2&0
CC(C)(Oc1ccc(CCNC(=O)c2ccc(Cl)cc2)cc1)C(=O)O	-3	-6	-1	-1	0	0.0	-1	0
Nc1nc(=S)c2[nH]cnc2[nH]1	-4	11	-3	4	1	2.5	-5	1
CN(CCOc1ccc(CC2SC(=O)NC2=O)cc1)c1ccccn1 (stereo not drawn)	-2&-4	67*!	-5&-2	1&6	1&1	-1.9&-1.1	-8&-4	1&1
O=c1[nH]c(=O)n([C@H]2C[C@H](O)[C@@H](CO)O2)cc1F	1	4	-3	-13	3	-0.2	-4	0
CCN(CCCc1ccccc1)CCCc1ccccc1	-18	-15	35*	-9	7	1.8	-18	-1
CN(C/C=C/C#CC(C)(C)C)Cc1cccc2ccccc12	-4	-11	-6	25	1	3.4	-3	1
Cc1c(N(C)CS(=O)(=O)O)c(=O)n(-c2ccccc2)n1C	1	4	-4	-7	1	0.0	-1	1
CCCC1CC(C(=O)NC(C(C)Cl)C2OC(SC)C(O)C(O)C2O)N(C)C1 (stereo not drawn)	-7	-21	2	-14	0	1.7	-4	0
CCCC1O[C@@H]2C[C@H]3[C@@H]4CCC5=CC(=O)C=C[C@]5(C)[C@H]4[C@@H](O)C[C@]3(C)[C@]2(C(=O)CO)O1 (stereo partly drawn)	-3	-15	3	-15	1	-1.1	-9	1

Complete entries, quoted from the list:
Results for CCC(C(=O)OCCOCCN(CC)CC)c1ccccc1 (stereo not drawn) = M5 PAM: -21; CRFR2-BP antag: 7; M5 antag: 12; TAAR1 antagonist: -29; TAAR1 agonist: 3; CRFBP-R2 agonist: 2.7; CHRM4 PAM: -9; M5 ag: -21
Results for CCCC1CC(C(=O)NC(C(C)Cl)C2OC(SC)C(O)C(O)C2O)N(C)C1 (stereo not drawn) = M5 PAM: -7; CRFR2-BP antag: -21; M5 antag: 2; TAAR1 antagonist: -14; TAAR1 agonist: 0; CRFBP-R2 agonist: 1.7; CHRM4 PAM: -4; M5 ag: 0

Additional entries follow.
SMILES	M5 PAM	CRFR2-BP antag	M5 antag	TAAR1 antagonist	TAAR1 agonist	CRFBP-R2 agonist	CHRM4 PAM	M5 ag
Nn1nnc2ccccc21	0	8	-2	-12	2	1.7	-1	1
CC(=O)[C@H]1[C@H](C#N)C[C@H]2[C@@H]3CC=C4C[C@@H](O)CC[C@]4(C)[C@H]3CC[C@@]21C	-11	4	5	10	5	1.9	-11	3
CC(CCc1ccc(O)cc1)NCCc1ccc(O)c(O)c1 (stereo not drawn)	0	-15	-7	-20	8	-1.8	-4	0
CCOC(=O)C(C)(C)Oc1ccc(Cl)cc1	-5	3	3	-10	0	-1.9	1	0
C[C@H]1O[C@@H](n2cc(F)c(=O)[nH]c2=O)[C@H](O)[C@@H]1O	4	7	-8	-3	1	11	-1	2
O=C(O)c1cn(-c2ccc(F)cc2)c2cc(N3CCNCC3)c(F)cc2c1=O	-8	-8	0	-11	3	0.2	-10	1
CC(C)NC[C@@H](O)COc1ccc(CC(N)=O)cc1	-2	i	0	-24	1	i	-3	0

3 entries from above, ordered by molecular weight, highest first:
SMILES	M5 PAM	CRFR2-BP antag	M5 antag	TAAR1 antagonist	TAAR1 agonist	CRFBP-R2 agonist	CHRM4 PAM	M5 ag
CC(=O)[C@H]1[C@H](C#N)C[C@H]2[C@@H]3CC=C4C[C@@H](O)CC[C@]4(C)[C@H]3CC[C@@]21C	-11	4	5	10	5	1.9	-11	3
CC(C)NC[C@@H](O)COc1ccc(CC(N)=O)cc1	-2	i	0	-24	1	i	-3	0
CCOC(=O)C(C)(C)Oc1ccc(Cl)cc1	-5	3	3	-10	0	-1.9	1	0

Records listed above printed as active in CRFR2-BP antag:
| Molecule | M5 PAM | CRFR2-BP antag | M5 antag | TAAR1 antagonist | CRFBP-R2 agonist | CHRM4 PAM | M5 ag |
| --- | --- | --- | --- | --- | --- | --- | --- |
| CN(CCOc1ccc(CC2SC(=O)NC2=O)cc1)c1ccccn1 (stereo not drawn) | -2&-4 | 67*! | -5&-2 | 1&6 | -1.9&-1.1 | -8&-4 | 1&1 |

Compound activity from PubChem.
